Vaccinia mCherry = vaccinia inhibition (mCherry reporter); Vaccinia virus mCherry reporter infection, fluorescence; about a quarter of the inactives have no number; Potency, µM (doses to about 36.5 µM), for the others: top-dose activity change, negative = inhibition, hits mostly inhibitors; actives 0.63% (n = 310,000); AID 720579; active = well fitted inhibition curve with a large enough effect; inconclusive = small, poorly fitted or top-dose-only effect; inactive = no such curve, though single readings can be large or run the other way; tested in A549 cells; note: nearly all actives have a fitted effect of over 35% in size; inactives centre near -10
Vaccinia Venus = inhibitors of vaccinia virus (Venus reporter) | Vaccinia virus Venus reporter expression, fluorescence | Potency, µM (doses to about 36.5 µM), for the others: at the top dose activity change, negative = inhibition, hits mostly inhibitors | actives 0.46% (n = 330,000); active means well fitted inhibition curve with a large enough effect; inconclusive means small, poorly fitted or top-dose-only effect; inactive means no such curve, though single readings can be large or run the other way; tested in A549 cells; note: nearly all actives have a fitted effect of over 30% in size; inactives centre near -10
* marks the source's active call; other numbers are inactive results; i = inactive; u = inconclusive; x = not tested or not shown; & = joins results of further samples; [ ] = remark or other dose. % is set by controls: 0 for no effect and ±100 for the full control effect; potency is the fitted concentration of half-maximal effect. An unsorted share of the library. Share with any hit: about 0.82%.

SMILES | Vaccinia mCherry | Vaccinia Venus
COC(=O)c1ccc(C2c3c(oc4ccc(F)cc4c3=O)C(=O)N2CCO)cc1 (stereo unspecified) | x | 7%
O=C(Nc1ccc(N2CCCCC2)c(Cl)c1)c1cccnc1 | 13µM* | 2%
COc1ccc(NC(=O)C2(C)CCN2C(=O)c2ccc(C(C)(C)C)cc2)cc1OC (stereo unspecified) | 10% | -6%
COc1cc(OC)c(N2CC(C(=O)Nc3cccc(C(=O)NC4CC4)c3)CC2=O)cc1Cl (stereo unspecified) | -2% | -8%
CCN(CC)S(=O)(=O)c1ccc(Cl)c(NC(=O)c2ccccc2C)c1 | -20% | -17%
CCNc1ccc2c(Cl)cc(=O)oc2c1 | -12% | 2%
CC(=O)N1CC2(CC(=O)OC(C)C)CN(C(C)=O)CC(CC(=O)OC(C)C)(C1)C2=O | x | -13%
CC(C)(C(=O)N1CCC1(C)C(=O)NC1Cc2ccccc2C1)c1ccccc1 (stereo unspecified) | i | -12%
COC(=O)c1nc(-c2ccc(C)cc2)[nH]c1C(C)(C)C | -13% | -23%
CC(=O)c1cccc(CN2CCc3ccc(NC(=O)C4CCCO4)cc3C2)c1 (stereo unspecified) | -20% | -17%
CC(C)c1onc(C(=O)NCc2ccc(F)cc2)c1[N+](=O)[O-] | i | 4%
O=C(COC(=O)c1cc[n+]([O-])cc1)Nc1cc([N+](=O)[O-])ccc1Cl | -12% | -8%
COc1ccc(F)c(CN2CCC(n3nccc3NC(=O)CCCc3ccccc3)CC2)c1 | 0% | -12%
COc1ccc(/C(C)=N/NC(=O)CNC(=O)C2COc3ccccc3O2)c(OC)c1 (stereo unspecified) | -6% | -23%
O=C(NCCc1ccccc1)C1CCN(Cc2ccccc2F)CC1 | i | -8%

SMILES | Vaccinia mCherry | Vaccinia Venus
CC(C)c1ccc(S(=O)(=O)Nc2ccc3oc4c(c3c2)C(=O)CC(C)(C)C4)cc1 | -11% | -15%
CCSc1ncc(C)cc1[N+](=O)[O-] | -10% | -13%
CCc1nc(SCc2cccnc2)c2c(=O)n(C)c(=O)n(C)c2n1 | -9% | -8%
N/C(Cc1nc(-c2ccc(F)cc2)cs1)=N\O | i | 1%
COc1cc(C2/C(=C(\O)c3ccc4c(c3)CC(C)O4)C(=O)C(=O)N2CCCn2ccnc2)cc(OC)c1OC (stereo unspecified) | -17% | -16%
COc1ccc(C2c3c(-c4c(C)cc(C)cc4O)n[nH]c3C(=O)N2Cc2ccco2)cc1 (stereo unspecified) | -17% | -11%
CC(C)(C)NC(=O)/C=C/c1cccc(C(F)(F)F)c1 | -7% | -4%
CC1CN(C(=O)c2cccc(COc3ccc(Br)cc3)c2)CC(C)O1 (stereo unspecified) | -32% | -26%
COc1ccc(-c2cc(C(=O)NCc3ccc(C)cc3)c3cc(C(C)C)ccc3n2)cc1 | -24% | -24%
C[C@H](O)[C@@H]1CN2CCc3c([nH]c4ccccc34)[C@@H]2C[C@@H]1N(C)C(=O)OCc1ccccc1 | 7% | -4%
Cn1c(SCc2ccccc2)nnc1-c1ccc2c(c1)OCO2 | x | -11%
CCOC(=O)[C@H]1[C@H]2COc3ccc(C)cc3[C@@H]2N2C(=O)c3cc(Cl)ccc3NC(=O)[C@@]12C | -14% | -14%
CCCCCCC[n+]1ccc(/C=C/c2c[nH]c3ccccc23)c2ccccc21 | i | x
COC1C(O)C(O)C(O)C(O)C1O (stereo unspecified) | 4%&-26% | u
Cc1ccc(Nc2cc(C(=O)NC3CCCC3)c3ccccc3n2)c(C)c1 | -6% | -7%

Of the compounds above, 6 contain sulfur.
SMILES | Vaccinia mCherry | Vaccinia Venus
CCN(CC)S(=O)(=O)c1ccc(Cl)c(NC(=O)c2ccccc2C)c1 | -20% | -17%
CC(C)c1ccc(S(=O)(=O)Nc2ccc3oc4c(c3c2)C(=O)CC(C)(C)C4)cc1 | -11% | -15%
CCSc1ncc(C)cc1[N+](=O)[O-] | -10% | -13%
CCc1nc(SCc2cccnc2)c2c(=O)n(C)c(=O)n(C)c2n1 | -9% | -8%
N/C(Cc1nc(-c2ccc(F)cc2)cs1)=N\O | i | 1%
Cn1c(SCc2ccccc2)nnc1-c1ccc2c(c1)OCO2 | x | -11%

(more compounds)
SMILES | Vaccinia mCherry | Vaccinia Venus
CCOC(=O)CC(NC(=O)Cc1cccs1)c1ccccc1Cl (stereo unspecified) | -4% | -4%
Cc1cccc(C)c1NC(=O)c1ccc2nc(CCc3ccccc3)oc2c1 | -15% | -13%
CCc1cc2c(NCCC(=O)O)ncnc2s1 | -2% | 7%
CCOC(=O)NN1C(=O)c2ccccc2NC1c1ccc(OC)c(OC)c1 (stereo unspecified) | i | -7%
O=C(NCc1ccc(F)cc1)c1cccc2c1C(=O)c1ccc(N3CCC(N4CCCCC4)CC3)cc1S2(=O)=O | i | -9%
CCCCN(C)CCNC(=O)C(=O)c1c(C)[nH]c2ccccc12 | -5% | -3%
Cc1cccc(NC(=S)NNC(=O)c2csc3c2CCCC3)c1 | -23% | -8%
O=S1(=O)CCOC[C@H](Cc2ccccc2)N1Cc1cccc(Cl)c1 | -7% | -4%
CCOc1ccc(CC(=O)NNC(=S)NC2CCCCC2)cc1OCC | x | -23%
CCC1CCC2(CC1)NC(CO)(CO)CO2 (stereo unspecified) | i | -10%
CC1(C)Cc2c(cnn2-c2ccc(F)cc2)C(NC(=O)CCCN2CCCCC2=O)C1 (stereo unspecified) | i | -13%
O=C(NC1CC2CCCC(C1)N2S(=O)(=O)c1ccccc1)c1ccco1 (stereo unspecified) | i | -13%
O=C(COc1ccc([N+](=O)[O-])cc1)Nc1ccncc1 | -11% | -9%
CCn1nc(C(=O)NNC(=O)c2ccc(OC(F)F)cc2)c2ccccc2c1=O | 26% | -7%
Cc1ccc(NC(=O)C2CCCN2S(=O)(=O)c2ccc(-c3ccc(=O)[nH]n3)s2)c(C)c1 (stereo unspecified) | -19% | -14%

SMILES | Vaccinia mCherry | Vaccinia Venus
Cc1cccc(Oc2nc(CN3CCOCC3)nc3sc4c(c23)CCCC4)c1 | -16% | -20%
Nc1cccnc1Sc1ccccc1 | 0%[7.34 µM] | -11%[7.34 µM]
Cc1[nH]n(-c2ccccc2)c(=O)c1-c1cccc(Cl)c1 | -11% | -23%
COc1ccc(-c2nc3ccccc3n3c(-c4ccccc4)c4c(=O)n(C)c(=O)n(C)c4c23)cc1 | -7% | 8%
CCC(c1nnnn1CS(=O)(=O)c1ccc(C)cc1)N1CCN(c2nc3ccccc3s2)CC1 (stereo unspecified) | i | -19%
COc1cccc(Nc2ncnc3sccc23)c1 | -9% | -26%
CCCNC(=O)c1cc(S(=O)(=O)N2CCc3ccccc32)ccc1F | -17% | -9%
CCOc1ccc(N(CC(=O)Nc2ccc3c(c2)OCCO3)S(=O)(=O)c2c(C)noc2C)cc1 | i | -9%
Cc1cc(N2C(=O)CC(N3CCN(C(c4ccccc4)c4ccccc4)CC3)C2=O)no1 (stereo unspecified) | x | 2%
O=C(N/N=C/c1cccc2ccccc12)c1n[nH]c2c1CCCC2 | -11% | -18%
O=C(Nc1ccccn1)c1ccc2c(c1)S(=O)(=O)c1ccccc1C2=O | u | 0%
Cc1ccc(S(=O)(=O)NC(=O)C2(C)CCN2C(=O)c2cccc(F)c2)nc1 (stereo unspecified) | 9% | -3%
NC(=O)C1CCN(c2ccc(S(=O)(=O)N3CCCCC3)cn2)CC1 | -24% | -9%
CCOC(=O)/C(C#N)=C1/C=Cc2ccccc2N1CC | x | -15%
O=C(Cc1ccccc1)NS(=O)(=O)c1ccc(N=NN2CCOCC2)cc1 | 3% | -3%

SMILES | Vaccinia mCherry | Vaccinia Venus
NC(=O)CN1CCOCCOCCN(CC(N)=O)CCOCCOCC1 | -7% | -5%
CCOC(=O)C1=C(c2ccc(O)cc2)NC(=O)NC1C (stereo unspecified) | -2% | -1%
CCN(CC)C(=O)C(=O)c1cc(C)n(-c2ccc(F)cc2)c1C | -1% | 2%
CC1CCCN(C(=O)C2CCN(S(=O)(=O)c3cccc4cccnc34)CC2)C1 (stereo unspecified) | 12% | -12%
Cc1c(Cl)cccc1NC(=O)N1CCN(C(=O)c2ccco2)CC1 | -10% | 2%
COc1ccc(CCN2C(=O)CC(N3CCN(c4ccccn4)CC3)C2=O)cc1OC (stereo unspecified) | -16% | -6%
Cc1ccc(S(=O)(=O)NC2c3cccc4cccc(c34)C2Sc2n[nH]c(N)n2)cc1 (stereo unspecified) | u | -21%
O=C1OCC(CC2=C(O)C(=O)OC2)=C1O | i | 10%
CS(=O)(=O)c1ccc(Cl)c(NC(=O)CSc2nncn2-c2ccccc2)c1 | -8% | 5%
CCCNC(=O)COc1coc(CN2CCN(C(=O)c3ccco3)CC2)cc1=O | -14% | -4%
COc1ccc(C(=O)N=c2sc3c(C)ccc(OC)c3n2C)cc1 | i | -10%
CN(C)S(=O)(=O)n1cc(/C=C(\NC(=O)c2ccccc2F)C(=O)NCCCn2ccnc2)c2ccccc21 | -4% | -13%
CC(Sc1nncn1C)C(=O)Nc1cc(C(F)(F)F)ccc1N1CCOCC1 (stereo unspecified) | i | -15%
O=C(/C=N/O)Nc1ccc(F)cc1 | x | -22%
C=CCC[C@H](Cc1ccc(F)cc1)C(=O)OC[C@H](Cc1c[nH]c2ccccc12)NC(=O)[C@H](CC=C)CC(=O)N[C@H](CO)Cc1ccccc1 | -28% | u

SMILES | Vaccinia mCherry | Vaccinia Venus
CCOc1ccc(C(=O)Nc2cc(C)c3c(=O)oc4ccccc4c3n2)cc1 | 6% | -11%
CC1NC(C)(C)Cc2c1ccc1ccccc21 (stereo unspecified) | i | -11%
CC(C)(C)c1ccc(C(=O)NCC(c2ccco2)S(=O)(=O)c2ccc(F)cc2)cc1 (stereo unspecified) | -23% | -16%
CCN(CC)C(=O)[C@H]1C[C@H](CC(=O)NCCC2=CCCCC2)C(=O)N2CCc3c([nH]c4ccc(Cl)cc34)[C@]12C | -21% | u
Clc1cccc(Cl)c1C1Nc2cccc3cccc(c23)N1 | u | -2%
O=C(C[n+]1cc(-c2ccccc2)n2c1CCC2)Nc1nc(-c2ccccc2)cs1 | i | -11%
COc1ccc(OC)c(C(c2c(O)nc(SC)[nH]c2=O)c2c(O)nc(SC)[nH]c2=O)c1 | -13% | -12%
COc1cccc(/C=N/Nc2ccc([N+](=O)[O-])cn2)c1O | 1.1µM* | u
Cc1cc2nc(SCCOC(=O)Nc3cccc(Cl)c3)nc(C)c2cc1C | -1% | -14%
Cc1ccc(C(=O)C(OC(=O)CNC(=O)COc2ccccc2C)c2ccccc2)cc1 (stereo unspecified) | -13% | -8%
O=C(Nc1ccc2nccnc2c1)N1CCCCCC1 | -8% | -8%
CCc1ccccc1N1CC(c2nc3ccccc3n2CC(C)C)CC1=O (stereo unspecified) | -14% | -8%
COCCNC(=O)CSc1cc(-c2ccccc2)c2ccc(OC)cc2n1 | -8% | -10%
CC1(C)c2ccccc2N2CCC(=O)NC21/C=C/c1ccco1 (stereo unspecified) | x | 29%
CCNc1nc(NCC)n2c(SC(C(=O)Nc3cc(C)ccc3C)c3ccccc3)nnc2n1 (stereo unspecified) | i | -15%

SMILES | Vaccinia mCherry | Vaccinia Venus
CCCC(=O)Nc1nnc(SCc2cc(=O)c3ccc(C)cc3[nH]2)s1 | -3% | -26%
COc1cccc(CNC(=O)CSC2=Nc3ccccc3N=C(c3ccc(F)cc3)C2)c1 | -25% | -24%
O=C(NC1CCSC1=O)c1ccc(Oc2ccc(F)cc2)nc1 (stereo unspecified) | x | -19%
Cc1ccc(S(=O)(=O)N(Cc2ccccc2Cl)C(=O)N2CCN(C)CC2)cc1 | -12% | -4%
CC(Sc1nnc(-c2ccc(Cl)cc2Cl)n1Cc1ccccc1)C(=O)Nc1nccs1 (stereo unspecified) | u | u
O=C(CSc1cn[nH]n1)Nc1ccccc1C(=O)O | -1% | -7%
COC(=O)C1=C(c2ccc(OC)c(OC)c2)C[C@@H]2CC[C@H]1N2C(=O)NCc1ccc(F)cc1 | i | -12%
COC(=O)Cc1cc(=O)n(-c2nc3ccccc3s2)[nH]1 | i | -16%
CCc1ccc(C2CC(=O)c3c([nH]c(C(=O)OCCOc4ccccc4)c3C)C2)cc1 (stereo unspecified) | i[7.34 µM] | -16%[7.34 µM]
COc1ccccc1-c1ccnc(-n2ncc(C(=O)NCCc3ccncc3)c2C)n1 | -22% | -15%
COc1ccc(-c2csc3nc(-c4ccc(F)cc4)oc(=O)c23)cc1 | -25% | -16%
COc1ccc(/C=N/NC(=O)CN(C2=NS(=O)(=O)c3ccccc32)c2ccccc2)cc1OC | -26% | -19%
Cc1ccccc1NC(=O)Cc1nc(COC(=O)/C=C/c2ccccc2)cs1 | -8% | 0%
CN(Cc1cnn(-c2ccc(F)cc2)c1)C(=O)[C@H]1O[C@@H](n2ccc(=O)[nH]c2=O)[C@H](O)[C@@H]1O | 2% | 4%
O=C(NCCCNc1ccc(C(F)(F)F)cc1[N+](=O)[O-])c1ccc(F)cc1 | 0% | -3%
Cc1ccc(N2C(=O)C3CCC(c4ccccc4)CC3C2=O)cc1 (stereo unspecified) | -8% | -15%

Bioassay records as filed in PubChem.
